VACV Venus inh: vaccinia inhibition (Venus reporter); Vaccinia virus Venus reporter expression, fluorescence; Potency, µM (top dose mostly 36.5 µM), for the others: at the highest dose activity change, negative = inhibition, usual class: inhibitors; hit rate 0.46% among 330,000; AID 720580; active means well fitted inhibition curve with a large enough effect; inconclusive means small, poorly fitted or top-dose-only effect; inactive means no such curve, though single readings can be large or run the other way; tested in A549 cells; also: nearly all actives have a fitted effect of over 30% in size; inactives centre near -10
Vaccinia mCherry: vaccinia inhibition (mCherry reporter); Vaccinia virus mCherry reporter infection, fluorescence; about a quarter of the inactives have no number; Potency, µM (series often up to 36.5 µM), without a hit: at the highest dose activity change, negative = inhibition, hits mostly inhibitors; hit rate 0.63% among 310,000; AID 720579; active = well fitted inhibition curve with a large enough effect; inconclusive = small, poorly fitted or top-dose-only effect; inactive = no such curve, though single readings can be large or run the other way; tested in A549 cells; also: nearly all actives have a fitted effect of over 35% in size; inactives centre near -10
* = called active by the depositor; i = inactive; ? = inconclusive; . = not tested or not shown; & = joins results of further samples; [ ] = remark or other dose. % is scaled to controls: 0 for no effect and ±100 for the full control effect; potency is read from the fitted curve at half-maximal effect. Random draw from the library. About 0.87% of those tested had a hit in this group.

SMILES	VACV Venus inh	Vaccinia mCherry
Cc1ccc(-c2n[nH]c(=S)n2C)cc1Cl	-4.6%	-10.2%
O=C1CC(NNc2ccccc2)C(=O)N1c1cccc(Cl)c1 (stereo unspecified)	?	.
CC1Cc2ccccc2N1C(=O)COC(=O)c1cc(Br)ccc1O (stereo unspecified)	-2.9%	-22.8%
CNC(=O)C(=O)NCC1OCCN1S(=O)(=O)c1ccc([N+](=O)[O-])cc1 (stereo unspecified)	?	-22.1%
CC(=O)O/C(=C1\CC2C3CC=C4CC(OC(C)=O)CCC4(C)C3CCC2(C)C1=O)C(F)(F)F (stereo unspecified)	-10.3%	i
COc1ccccc1NC(=O)CCC(=O)N1CC(C)Oc2ccc(C)cc21 (stereo unspecified)	-19.9%&-5.1%	-10.3%&-3.6%
CCc1ccccc1NC(=O)CSc1nnc(CNC(=O)c2ccco2)n1C	-1.6%	7.7%
COc1cccc(C(NC(C)=O)c2nc(-c3ccncc3)cs2)c1 (stereo unspecified)	0.9%	i
CC/C(=N\N1CCCCC1)c1c(O)[nH]c(=O)[nH]c1=O	-6.8%	i
COc1ccc(S(=O)(=O)N2CCCC(C(=O)NCc3ccco3)C2)cc1Cl (stereo unspecified)	-17.3%	-21.4%
O=C(C[n+]1cc(-c2ccccc2)n2c1CCC2)c1cccs1	-9.5%	i
Nc1ccccc1SCC(=O)Nc1cccc2ccccc12	-19.4%	?
COc1cccc(NS(=O)(=O)c2c(C)n(C)c(=O)n(C)c2=O)c1	-1.4%	2.7%
COCCn1c(NCc2ccc(C)cc2)nc2c1c(=O)[nH]c(=O)n2C	-12.7%	.
COC(=O)C1=C(c2ccc(F)cc2OCc2ccccc2)C[C@@H]2CC[C@H]1N2C(=O)NCCOc1ccccc1	?	-10.4%
COc1cc(CC(=O)N2c3ccccc3N=C(c3ccccc3)C2C(=O)NCc2ccccc2)cc(OC)c1 (stereo unspecified)	-29.2%	?
CCOc1ccc(C(=O)CCC(=O)NNC(=O)c2ccccc2O)cc1	1.7%	?
Cc1cc(C(=O)Nc2ccc(S(=O)(=O)N3CCOCC3)cc2)c(C)o1	-23.4%	-9.7%
COC(=O)[C@H](C)NC(=O)NCc1ccc(F)cc1	2.8%	-14.8%
Nc1cccc(-c2cc3ccccc3oc2=O)c1	-14.3%	-8.3%
O=C(Nc1ccccc1F)c1ccc(CSc2ncccn2)cc1	-4.4%	-3.1%
CN(C)S(=O)(=O)c1ccc(C(=O)Nc2nnc(SCc3cccc(F)c3)s2)cc1	-11.7%	-2.9%
CC(=O)c1c(C)[nH]c(C(=O)N2CCC3(CC2)OCCO3)c1C	-4.5%	-13.3%
CCCCNC(=O)c1onc(CSc2ccc(OC)cc2)c1C(=O)O	-4.0%	i
O=C(N/N=C1\CCc2ccccc21)c1ccncc1	-21.8%	0.9%
O=C(c1ccco1)N1CCN(C2CN(Cc3ccccc3)S(=O)(=O)C2)CC1 (stereo unspecified)	7.2%	18.0%
COc1ccc(-n2nnnc2SC(C)C(N)=O)cc1 (stereo unspecified)	-9.9%	-1.2%
CCC(=O)N1CCc2cc(OC)c(OC)cc2C1COc1ccc2c(C)cc(=O)oc2c1 (stereo unspecified)	-10.4%	-13.7%
Cc1cc(CN(C)C(=O)c2ccc3nc(Cc4ccccc4F)oc3c2)on1	-16.5%	-19.1%
COc1ccccc1NC(=O)CC(c1ccc(F)cc1)c1ccco1 (stereo unspecified)	-16.8%	i
COC(=O)c1nccnc1N	-7.7%	-20.8%
COc1ccccc1C(=O)Nc1c(C(=O)N(C)c2ccccc2)sc2nc(C)cc(C)c12	-10.7%	-14.3%
CCOC(=O)C1=CCC(c2ccccc2Cl)N(S(=O)(=O)c2ccc(C)cc2)C1 (stereo unspecified)	7.9%	14.1%
O=c1[nH]c(CSc2ncc(C(F)(F)F)cc2Cl)nc2ccccc12	-12.2%	i
CNc1oc(-c2ccc(OCc3ccccc3)cc2)nc1C#N	-23.6%	-21.4%
C/C(=N\Nc1ccccc1)c1cccc(N)c1	-22.3%	?
CC1(C)Cc2ccccc2C(NNC(=O)c2ccc(Br)o2)=N1	-4.6%	-7.9%
CCOC(=O)C1=C(C(F)(F)F)Nc2ncnn2C1c1cc(OC)ccc1OC (stereo unspecified)	-0.1%	-6.7%
NS(=O)(=O)c1ccc(OC(=O)CNC(=O)OCc2ccccc2)cc1	-12.6%	-14.5%
Cc1ccc(OC(=O)CCC(=O)Nc2ccc(Br)cc2)cc1	-12.0%	i
Cc1cccc(C(=O)Nc2nnc(S(=O)(=O)N(C)c3ccccc3C)s2)c1	-2.3%	-6.8%
COc1ccc(-c2cc(C(=O)N(C)Cc3ccc(OC)c(OC)c3OC)c3ccccc3n2)cc1OC	-17.3%	-14.5%
O=C(C(=O)N1CCC(Cc2ccccc2)CC1)c1ccccc1	-15.6%&-15.4%	-7.4%&-3.5%
COc1ccc(S(=O)(=O)Nc2nnc(C(C)(C)C)s2)cc1	-17.8%	-9.2%
O=C(NCCC1CCCCN1S(=O)(=O)c1ccccc1)C(=O)Nc1ccc(F)cc1F (stereo unspecified)	?	?
COc1ccc2nc(C)cc(SCC(=O)N/N=C/c3ccc(O)cc3O)c2c1	?	?
CN(C)C(CNC(=O)c1ccc2c(=O)n(-c3ccccc3F)c(=S)[nH]c2c1)Cc1ccccc1 (stereo unspecified)	-6.2%	-4.9%
Cc1ccccc1-c1nnc(SCC(=O)N2CCCCC2)o1	-5.3%	-10.9%
O=c1/c(=C\c2cccn2-c2ccccc2)sc2nc3ccccc3n12	-5.4%	-8.5%
Cc1sc2ncnc(NCc3ccco3)c2c1C	-17.0%	i

Later entries.
SMILES	VACV Venus inh	Vaccinia mCherry
O=C1Nc2ncccc2OC1CCCl (stereo unspecified)	-10.2%	-7.1%
Cc1ccc(OCCCC(=O)Nc2sc3c(c2C(N)=O)CCCC3)cc1	12.5%	-5.1%
CC1(C)CC(=O)C2=C(C1)NCN(Cc1ccc3c(c1)OCO3)C2	-0.2%	-10.8%
O=C(N/N=C/c1c[nH]c2ccccc12)c1cc(-c2ccc3ccccc3c2)n[nH]1	?	?
O=C(NCc1cccs1)C(=O)NCC1OCCCN1S(=O)(=O)c1cc(F)ccc1F (stereo unspecified)	-10.9%	-14.6%
COc1ccccc1Oc1ccc(N/C=C/C(=O)c2ccco2)cc1	-10.4%	-15.4%
COc1ccc(N(CC(=O)NC2CCCC2)C(=O)c2ccc(N3CCCCC3)nc2)cc1	-15.8%	-9.3%
O=C(CCCn1c(=O)c2cccn2c2ccccc21)Nc1cc(C(F)(F)F)ccc1Cl	-3.8%	-1.2%
CS(=O)(=O)c1ccc(NC(=O)c2cccc(S(=O)(=O)N3CCN(Cc4ccccc4)CC3)c2)cc1	-26.4%	?
CC(=O)CCc1ccc(Oc2nc(-c3cccnc3)nc3ccccc23)cc1	-22.1%	-5.9%
CCCNC(=O)C1CN(S(=O)(=O)c2ccccc2)CCN1S(=O)(=O)c1ccccc1 (stereo unspecified)	-15.3%	i
Nc1nc(SCC(=O)Nc2cc(Cl)ccc2Cl)n[nH]1	-13.6%	-22.6%
CCOc1ccc(N=Cc2ccc([N+](=O)[O-])cc2)c(O)c1	-15.9%	-22.6%
Nc1cc2c(cc1Cl)-c1ccc([N+](=O)[O-])cc1C2=NO	17.5%	i
COc1ccc(C(=O)Nc2ccc(C(=O)c3ccccc3)cc2)cc1	-12.7%[7.34 µM]	i[7.34 µM]
Cc1cccc(N(C(=O)c2csnn2)C(C(=O)NCc2ccccc2)c2cccs2)c1 (stereo unspecified)	-11.3%	-25.6%
CCn1c(C)nnc1SCC(=O)Nc1ccc(OC)cc1	-4.7%	i
COc1ccccc1C(O)(C(=O)NNc1cccc(C)c1)c1ccccc1OC	7.7%	-19.0%
CCOC(=O)n1c(=O)n(Cc2ccccc2Cl)c2ccccc21	-22.4%	.
COc1ccc(-c2nc(CSc3nncn4c3cc3oc(C)cc34)c(C)o2)cc1	-11.7%	-15.0%
CC(C)n1c(=NC(=O)c2ccco2)c(C#N)cc2c(=O)n3ccccc3cc21	-4.0%	-6.4%
CC(=O)c1ccccc1NC(=O)C1CC(=O)N(c2ccc3c(c2)OCCO3)C1 (stereo unspecified)	-1.5%	-3.2%
O=C(C1CCCO1)N1CCN(S(=O)(=O)c2cccc3nsnc23)CC1 (stereo unspecified)	-13.5%	.
O=[N+]([O-])c1ccc(OCCCOc2cccc3cccnc23)cc1	-6.6%	-12.3%
Cc1nn(CCO)c2nc(-c3cccs3)cc(C(F)(F)F)c12	-23.7%	-16.9%
Cc1cc2c(cc1S(=O)(=O)NCc1ccc(F)cc1)OCC(=O)N2	-8.2%	0.3%
CCOC(=O)C1(CC2CCCCO2)CCN(Cc2nccn2-c2ccc(OC)cc2)CC1 (stereo unspecified)	-6.1%	-4.1%
CC(C)(C)C(=O)c1c(N)[nH]c(C(=O)c2ccccc2)c1-c1ccc(F)cc1	7.6%	4.5%
Nc1c(C(=O)Nc2ccc(C(F)(F)F)cc2)sc2nc(-c3cccs3)ccc12	-1.3%	-7.1%
O=C(Nc1ccc(S(=O)(=O)N2CCC(c3nc4ccccc4s3)CC2)cc1)c1ccc(F)cc1	-7.5%	-8.6%
CC[C@]12c3[nH]c4ccc(Cl)cc4c3CCN1C(=O)[C@@H](CC(=O)NC/C=C(\C)CCC=C(C)C)C[C@@H]2C(=O)N1CCN(C(=O)c2ccco2)CC1	?	-37.9%
CN(C)C(=S)c1ccccc1	-14.9%	-20.7%
CCN(c1ccccc1)S(=O)(=O)c1ccc(Cl)c(NC(=O)CNCc2ccccc2OC)c1	-16.1%	i
O=C(Nc1ccccc1N1CCOCC1)c1cccc([N+](=O)[O-])c1	-1.9%	-14.1%
Fc1ccc(NC(=S)Nc2cccnc2)c(Cl)c1	2.3%	9.4%
Cc1ccc(NC(=O)CSc2nccc(=O)[nH]2)c(S(=O)(=O)N2CCOCC2)c1	6.3%	.
O=S1(=O)CC(N2CCCCC2)CN1Cc1cn(Cc2ccc(F)cc2)nn1 (stereo unspecified)	-0.3%	-4.2%
CS(=O)(=O)c1ncc(Cl)c(C(=O)Nc2ccc(N3CCOCC3)cc2)n1	-24.6%	-1.5%
CC(C)NC(=O)C1c2ccccc2Oc2ccccc21	0.5%	i
Cc1cc(=O)[nH]c(NN)n1	-10.5%	-20.6%
CCOC(=O)C1=C(O)C(=O)N(Cc2ccccc2)CC1	-12.5%	-6.6%
O=S(=O)(c1ccccc1Br)N(CC(O)COCc1ccccc1)C1CC1 (stereo unspecified)	-11.1%	-8.3%
FC(F)(F)c1cc(Oc2ccc(Cl)cc2)ncc1-c1nnc(-c2ccc(Cl)cc2)o1	-4.6%	i
CS(=O)(=O)N1CCN(Cc2ccc([N+](=O)[O-])cc2)CC1	-10.5%	i
CC(C)(C)C1CCc2c(sc3nnn(CCOc4ccccc4)c(=O)c23)C1 (stereo unspecified)	6.7%	0.4%
Cc1ccc(NC(=O)c2cccc(NC(=O)N3CCSc4ncccc43)c2)cc1Cl	-19.1%	-14.1%
CCCCN(C)C(=O)c1cc2c(Cl)nc3ccccc3c2s1	-5.4%	i
COc1ccc(OCC(=O)Nc2cc(-c3nc4ccccc4o3)ccc2Cl)cc1	-4.8%	-16.3%
CCc1nn(CCCC(=O)NCc2cc(Br)ccc2OC)c(=O)c2cc3occc3n12	-0.9%&-7.2%	1.1%&-13.4%
O=C(NCC(c1ccco1)N1CCN(c2ccccc2)CC1)C(=O)NC1CCCC1 (stereo unspecified)	-14.7%	-11.6%

A portion from further up:
SMILES	VACV Venus inh	Vaccinia mCherry
Cc1ccc(NC(=O)CSc2nccc(=O)[nH]2)c(S(=O)(=O)N2CCOCC2)c1	6.3%	.
O=S1(=O)CC(N2CCCCC2)CN1Cc1cn(Cc2ccc(F)cc2)nn1 (stereo unspecified)	-0.3%	-4.2%
CS(=O)(=O)c1ncc(Cl)c(C(=O)Nc2ccc(N3CCOCC3)cc2)n1	-24.6%	-1.5%
CC(C)NC(=O)C1c2ccccc2Oc2ccccc21	0.5%	i
Cc1cc(=O)[nH]c(NN)n1	-10.5%	-20.6%
CCOC(=O)C1=C(O)C(=O)N(Cc2ccccc2)CC1	-12.5%	-6.6%
O=S(=O)(c1ccccc1Br)N(CC(O)COCc1ccccc1)C1CC1 (stereo unspecified)	-11.1%	-8.3%
FC(F)(F)c1cc(Oc2ccc(Cl)cc2)ncc1-c1nnc(-c2ccc(Cl)cc2)o1	-4.6%	i
CS(=O)(=O)N1CCN(Cc2ccc([N+](=O)[O-])cc2)CC1	-10.5%	i
CC(C)(C)C1CCc2c(sc3nnn(CCOc4ccccc4)c(=O)c23)C1 (stereo unspecified)	6.7%	0.4%
Cc1ccc(NC(=O)c2cccc(NC(=O)N3CCSc4ncccc43)c2)cc1Cl	-19.1%	-14.1%
CCCCN(C)C(=O)c1cc2c(Cl)nc3ccccc3c2s1	-5.4%	i
COc1ccc(OCC(=O)Nc2cc(-c3nc4ccccc4o3)ccc2Cl)cc1	-4.8%	-16.3%

Other structures.
SMILES	VACV Venus inh	Vaccinia mCherry
COc1cc(NC(=S)N2CCN(S(=O)(=O)c3ccc(C)cc3)CC2)cc(OC)c1	-23.5%	-9.7%
Cc1ccc(S(=O)(=O)N2[C@@H](c3cccc(Cl)c3)C(C(=O)O)=CC[C@H]2c2ccc(C(C)C)cc2)cc1	-16.3%	9.6%
Cc1cccc(NC(=O)Cn2nnc3sc4c(c3c2=O)CC(C)(C)OC4)c1	-6.0%	-14.1%
CC1=C(C(=O)N(C)C)CC(CC(=O)NCc2cccc3ccccc23)C(=O)N1CCC1=CCCCC1 (stereo unspecified)	-20.5%	-12.0%
c1coc(CNc2nc(N3CCCCC3)nc3ccccc23)c1	?	-29.4%
